gsp ag – agonists of gsp mutant (McCune-Albright syndrome). Potency, µM (titrated, usually from 76.9 µM), for the others: top-dose activation (cAMP increase), actives largely listed as activators. gsp mutant cells, cAMP HTRF, 30 min; control for the full effect not named in the record. 0.13% of 340,000 active; active = well fitted activation curve with a large enough effect; inconclusive = small, poorly fitted or top-dose-only effect, or another doubt; inactive = no such curve, though single readings can be large or run the other way; cell line not stated here;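 also: phosphodiesterase inhibitor Ro 20-1724 added with compounds to block cAMP breakdown; potency is read from the fitted curve at half-maximal effect; nearly all actives have a fitted effect of over 60% in size; about a fifth of the inactives were tested at one dose only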
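Cells stably selected in G418 were plated at 2000/well, grown 16-24 hr, then given compounds in DMSO with the PDE inhibitor […] (300 uM solution added) for 30 min at 37C; cAMP was read by HTRF.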
TRPV1 potentiator – human TRPV1 potentiation; Q8NER1; TRPV1-expressing cells, Fluo-8 calcium influx, capsaicin EC20 potentiation; host cell line not named in the record; control for the full effect not named in the record; potentiation, % at 8.33 µM; 0.02% of 320,000 active; AID 540277; active means potentiation above 80%; inconclusive means 30% to 80%; inactive means below 30%; also: 0% is about no effect
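TRPV1-expressing cells were cultured overnight at 35.5C and loaded with Fluo-8 calcium dye for 40 to 90 min at room temperature. After a 10 s baseline, compound was added and calcium influx was read kinetically for 3 min (ex 480/em 520 nm).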
ClpP mod – qHTS Assay for Activators of ClpP. ATP-dependent Clp protease proteolytic subunit (Bacillus subtilis (strain 168)), P80244. purified B. subtilis ClpP, FRET peptide cleavage, 20 min. Potency, µM (highest dose often 57.5 µM), inactives show at the top dose activity change, negative = active. 1.9% of 340,000 active. AID 651965, 2013; active = well fitted falling curve with a large enough effect; inconclusive = small, poorly fitted or top-dose-only effect; inactive = no such curve, though single readings can be large or run the other way; also: potency is read from the fitted curve at half-maximal effect; the source files actives as falling curves though it sought activators and does not explain the sign; nearly all actives have a fitted effect of over 65% in size; many hits overshoot -100%
Target sequence (P80244 whole entry, looked up): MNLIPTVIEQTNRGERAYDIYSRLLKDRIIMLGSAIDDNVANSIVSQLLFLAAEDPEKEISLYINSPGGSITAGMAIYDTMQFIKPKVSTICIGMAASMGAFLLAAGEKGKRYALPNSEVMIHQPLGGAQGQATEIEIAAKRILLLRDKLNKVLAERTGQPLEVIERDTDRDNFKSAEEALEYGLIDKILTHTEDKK
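Buffer: 100 mM Tris/HCl pH8, 100 mM KCl, 0.05% low protease BSA, 2.5% glycerol, 0.01% Tween-20. ClpP 10 microg/mL final; 20 min RT; delta FRET normalized to ADEP and DMSO controls.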
D2 PAM – human D2 receptor positive allosteric modulation; P14416; DiscoveRx D2 beta-arrestin cells, luminescence, 90 min; 100% = 57 uM dopamine signal; potentiation, % (test concentration not listed); 0.23% of 360,000 active; AID 624464; active = potentiation of 50% or more; inconclusive = 30% to 50%; inactive = 30% or less;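 also: compound concentration not given in the record; tested on top of an EC20 dose of dopamine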
Target sequence (P14416 whole entry, looked up): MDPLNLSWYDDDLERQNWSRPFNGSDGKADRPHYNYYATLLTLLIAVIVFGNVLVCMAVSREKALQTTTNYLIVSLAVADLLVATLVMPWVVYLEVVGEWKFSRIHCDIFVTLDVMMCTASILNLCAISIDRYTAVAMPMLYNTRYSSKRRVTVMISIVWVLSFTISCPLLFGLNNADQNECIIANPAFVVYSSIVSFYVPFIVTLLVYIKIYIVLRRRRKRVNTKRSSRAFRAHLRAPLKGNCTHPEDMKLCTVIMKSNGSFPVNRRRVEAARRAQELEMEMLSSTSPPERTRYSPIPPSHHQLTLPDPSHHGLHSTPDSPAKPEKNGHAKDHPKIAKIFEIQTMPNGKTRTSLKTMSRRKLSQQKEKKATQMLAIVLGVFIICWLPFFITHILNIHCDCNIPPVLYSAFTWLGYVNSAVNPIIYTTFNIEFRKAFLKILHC
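PathHunter beta-arrestin assay in DiscoveRx D2 cells. Compounds were added with an EC20 of dopamine (50 nM final) for 90 min at 37 deg C. Luminescence was read 1 h after detection reagent, with 57 uM dopamine as the EC100 control.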
Sfp PPTase inh – Sfp phosphopantetheinyl transferase inhibition | Q9F4F7 | Biochemical Sfp PPTase activity, qHTS | Potency, µM, for inactives: max response, negative = inhibition, actives largely listed as inhibitors | 3.5% of 310,000 active | AID 1490; active = well fitted inhibition curve with a large enough effect; inconclusive = small, poorly fitted or top-dose-only effect, or another doubt; inactive = no such curve, though single readings can be large or run the other way;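 also: the enzyme is Sfp with the accession as filed and its product quenches rhodamine fluorescence; potency is read from the fitted curve at half-maximal effect; 0% = enzyme reaction without inhibitor and -100% = no enzyme wells; top concentration of the series not given in the record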
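Buffer: 50 mM Hepes-Na pH 7.6, 10 mM MgCl2, 0.01% Nonidet P-40, 0.01% BSA. Enzyme 15 nM, pre-exposed to compound 15 min; substrates then added and fluorescence change tracked over 30 min.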
gsp antagonist – antagonizes gsp, the McCune-Albright syndrome mutation. gsp-mutant cells, cAMP HTRF, 30 min; control for the full effect not named in the record. Potency, µM (doses to about 76.9 µM), inactives show at the highest dose activity change, negative = inhibition, usual class: inhibitors. 0.4% of 340,000 active; active = falling curve of any shape with a large fitted effect; inconclusive = falling curve, mostly with a smaller effect; inactive = flat or rising curve; cell line not stated here;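 also: intracellular cAMP measured with PDE inhibitor Ro 20-1724 present during compound exposure; potency is read from the fitted curve at half-maximal effect; % is scaled to controls: 0 for no effect and ±100 for the full control effect; nearly all actives have a fitted effect of over 65% in size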
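Cells, 2000/well, grown 16–24 h in DMEM 10% FBS with 0.5 mg/ml G418, then compounds plus […] (300 uM addition stock), 30 min at 37C. cAMP read by HTRF (cAMP-d2 and anti-cAMP antibody-K in lysis buffer) after 30 min RT.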
Menin MLL FP FL – displaces fluorescein MLL peptide from human menin; 290,000 tested, under 10 active; FP activity change, % at 61.4 µM; Fluorescence polarization, fluorescein-MLL peptide displacement from menin; AID 1766; inconclusive = falling polarisation curve, or a change in total fluorescence; inactive = total fluorescence flat and polarisation flat or rising; no compound was filed as active; the % refers to the polarisation; negative = inhibition;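 also: % of control where 0% means no effect; inhibitors lower the polarisation; unlabelled MLL peptide was the positive control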
Numbers without * were called inactive; [ ] = dose if it differs, or a comment.

Screening N#Cc1ccc(NC(=O)c2cc(-c3cccs3)on2)cc1 returned gsp ag 0.2%[15.4 µM], TRPV1 potentiator -10.2, D2 PAM -11.0, Sfp PPTase inh 6.2%, gsp antagonist -8.0% and Menin MLL FP FL 1.7.
NNC(=O)c1cc(-c2ccc(O)cc2)nc2ccc(Br)cc12 was read as gsp ag 2.8%, TRPV1 potentiator -11.5, ClpP mod -1.3%, D2 PAM -2.5, Sfp PPTase inh 9.2%, gsp antagonist -10.3% and Menin MLL FP FL 0.1.
C=CCNC(=O)NC(=O)COC(=O)CCCSc1nc2ccccc2[nH]1 was read as gsp ag -43.5%[inhibitor], TRPV1 potentiator -3.3, ClpP mod -1.9%, D2 PAM -5.6, Sfp PPTase inh 1.4%, gsp antagonist -8.4% and Menin MLL FP FL 4.7.
Cc1cc(C(=O)CN2C(=O)NC3(CCCc4sccc43)C2=O)c(C)n1-c1ccccc1 (stereo not given) was read as gsp ag -13.4%, TRPV1 potentiator 10.5, ClpP mod -3.6%, D2 PAM 0.1, Sfp PPTase inh -15.9%, gsp antagonist -9.1% and Menin MLL FP FL 0.0.
Screening COCC(=O)N1CCN(c2nc3ccccc3o2)CC1 returned gsp ag 4.2%, TRPV1 potentiator inconclusive, ClpP mod 0.5%, D2 PAM -7.6, Sfp PPTase inh 9.3%, gsp antagonist 2.9% and Menin MLL FP FL 0.4.
Screening CN(C(=O)c1ccc(NC(=O)Cc2ccc(NC(=O)C3CCCN(C(=O)CCc4ccccc4)C3)cc2)cc1)C1CCCC1 (stereo not given) returned ClpP mod -0.2%, D2 PAM 2.8 and gsp antagonist -8.0%.
For COc1nc(-c2ccc(C)cc2)ccc1-c1noc(-c2cccnc2)n1 the results were gsp ag -23.9%, TRPV1 potentiator 2.1, ClpP mod inconclusive, D2 PAM -12.2, Sfp PPTase inh 4.9%, gsp antagonist 19.2% and Menin MLL FP FL 5.6.
Screening CC(=O)Nc1ccc(Nc2ncnc3c2cnn3-c2ccc(C)cc2C)cc1 returned gsp ag 6.2%, TRPV1 potentiator -17.4, ClpP mod -4.3%, D2 PAM -6.1, Sfp PPTase inh 2.7%, gsp antagonist -10.3% and Menin MLL FP FL 2.1.
Cc1ccc(C(=O)COC(=O)c2cc(=O)[nH]c3ccccc23)cc1C was read as gsp ag 13.6%[15.4 µM], TRPV1 potentiator -8.9, D2 PAM -0.5, Sfp PPTase inh 6.2%, gsp antagonist -8.8% and Menin MLL FP FL -5.9.
COc1ccccc1C(=O)NCCC(=O)NCc1cccnc1 was read as gsp ag -7.7%, TRPV1 potentiator -4.2, ClpP mod -0.9%, D2 PAM 1.2 and gsp antagonist 5.7%.
`COc1ccc(OCC(O)CNC(=O)c2ccccc2)cc1` (stereo not given) gave gsp ag 1.7%, ClpP mod -1.5%, D2 PAM -5.1, Sfp PPTase inh -4.6%, gsp antagonist 6.4% and Menin MLL FP FL -0.8.
`CNC(=O)N(C1=NCCCCC1)c1ccc(Br)cc1` gave gsp ag 5.6%, TRPV1 potentiator -1.3, ClpP mod -2.0%, D2 PAM -4.5, Sfp PPTase inh 6.6%, gsp antagonist -3.0% and Menin MLL FP FL -0.6.
Screening Cc1ccc2nc3c(c(N)c2c1)CCN3C returned gsp ag 3.7%, TRPV1 potentiator 6.5, D2 PAM -9.3, Sfp PPTase inh -16.2%, gsp antagonist 0.9% and Menin MLL FP FL 9.6.
COc1ccc(NC(=O)CSc2nnc(Cc3ccccc3)c(=O)n2N)cc1OC was read as gsp ag 10.7%[15.4 µM], TRPV1 potentiator -1.5, D2 PAM -11.4 and gsp antagonist 0.5%.
C=CCn1c(NC)cc(=O)n(C)c1=O was read as gsp ag 17.4%, TRPV1 potentiator 6.1, ClpP mod -0.3%, D2 PAM -7.5, Sfp PPTase inh 16.2%, gsp antagonist 12.3% and Menin MLL FP FL 1.7.
For COC(=O)c1ccc(NC(=O)CSc2nnc(C(C)NC(=O)c3ccccc3Cl)n2C)cc1 (stereo not given) the results were gsp ag 7.3%, TRPV1 potentiator -8.9, ClpP mod -1.0%, D2 PAM -1.5, Sfp PPTase inh 2.3%, gsp antagonist -5.7% and Menin MLL FP FL -1.8.
O=C(NC1CCCC1)C(c1ccccc1F)N(C(=O)c1ccco1)C1CCCC1 (stereo not given) was read as gsp ag -17.0%, TRPV1 potentiator -14.5, ClpP mod -8.0%, D2 PAM -9.2, Sfp PPTase inh 9.4%, gsp antagonist -7.5% and Menin MLL FP FL -1.7.
For O=C(Nc1ccccc1[N+](=O)[O-])c1cc(S(=O)(=O)Nc2ccccn2)ccc1Cl the results were gsp ag -2.4%, TRPV1 potentiator -4.1, D2 PAM 8.1, Sfp PPTase inh 9.4%, gsp antagonist -2.0% and Menin MLL FP FL -10.2.
O=C(O)c1ccccc1C(=O)NC1CCN(c2nccc(C(F)(F)F)n2)CC1 was read as gsp ag inconclusive, TRPV1 potentiator 15.5, D2 PAM -7.2, Sfp PPTase inh 17.8%, gsp antagonist 3.8% and Menin MLL FP FL 5.8.
For COc1ccc(/C=C2/SC(=S)N(CCC(=O)Nc3cccnc3)C2=O)cc1OC the results were gsp ag -6.2%, ClpP mod 0.4% and D2 PAM -0.4.
`CCN(CC)C(=O)c1ccc2c(c1[N+](=O)[O-])C(=O)c1ccccc1C2=O` gave TRPV1 potentiator 0.0, Sfp PPTase inh 13.2% and Menin MLL FP FL 1.6.
For O=C(COc1coc(CN2CCc3ccccc32)cc1=O)Nc1ccc([N+](=O)[O-])cc1 the results were gsp ag -33.4%[inhibitor], TRPV1 potentiator -12.3, ClpP mod -1.3%, D2 PAM 9.8 and gsp antagonist 7.2%.
O=C(c1cn(Cc2ccccc2)nc1-c1cccnc1)N1CCc2ccccc2C1 was read as gsp ag inconclusive, TRPV1 potentiator 13.5, ClpP mod -2.0%, D2 PAM -4.1 and gsp antagonist -17.9%.
Screening CCN1CC=C2C(C#N)=C(N)C(C#N)(C#N)[C@H](c3ccoc3)[C@H]2C1 returned gsp ag -4.1%[15.4 µM], TRPV1 potentiator -11.4, ClpP mod 1.5%, D2 PAM -9.0, Sfp PPTase inh inconclusive, gsp antagonist -9.8% and Menin MLL FP FL inconclusive.
N#CCCN(C(=O)COc1ccc(Br)cc1F)c1ccc(F)cc1 was read as gsp ag -16.5%, TRPV1 potentiator -0.8, ClpP mod -0.3%, D2 PAM -9.9, Sfp PPTase inh -19.4%, gsp antagonist -2.0% and Menin MLL FP FL 0.1.
COc1ccccc1C(=O)NCC(=O)N1CCN(C/C=C/c2ccccc2)CC1 was read as gsp ag -24.2%, ClpP mod -3.4%, D2 PAM -15.9 and gsp antagonist 2.6%.
COc1cccc(OC)c1C(=O)Nc1ccc(N2CCCCC2)cc1 was read as gsp ag -3.4%, TRPV1 potentiator -16.9, ClpP mod -1.6%, D2 PAM 0.5, Sfp PPTase inh -1.8%, gsp antagonist 20.9% and Menin MLL FP FL 0.5.
COc1ccc(-n2nc(C(=O)NCC(=O)NCCCN3CCCCCC3)c3ccccc3c2=O)cc1Cl was read as gsp ag 0.3%, TRPV1 potentiator 81.0*, ClpP mod -1.2%, D2 PAM -8.8, Sfp PPTase inh -21.2%, gsp antagonist 7.3% and Menin MLL FP FL 10.3.
For COCc1ccc(CN2CCC(n3nccc3NC(=O)C(OC)c3ccccc3)CC2)o1 (stereo not given) the results were gsp ag 6.1%[15.4 µM], TRPV1 potentiator 5.7, ClpP mod -6.0%, D2 PAM -2.7, Sfp PPTase inh 7.3% and gsp antagonist 9.8%.
`CCOC(=O)C1=C(CC)Nc2ccccc2N=C1NC(=O)CCNC(C)=O` gave gsp ag -2.4%[15.4 µM], TRPV1 potentiator 1.6, ClpP mod -1.7%, D2 PAM -6.8, Sfp PPTase inh 11.6%, gsp antagonist -12.7% and Menin MLL FP FL -0.4.
COc1cccc2c(=O)n(CC(=O)N3CCN(c4ccccc4)CC3)ccc12 was read as gsp ag inconclusive, TRPV1 potentiator 1.5, ClpP mod 4.1%, D2 PAM -6.0, Sfp PPTase inh 11.1%, gsp antagonist -2.8% and Menin MLL FP FL 2.2.
Cc1ccc(C(=O)NC(=S)Nc2cccc(NC(=O)c3ccccc3)c2)cc1[N+](=O)[O-] was read as gsp ag 3.1%, TRPV1 potentiator 3.8, ClpP mod 0.3%, D2 PAM -33.9, Sfp PPTase inh -5.9%, gsp antagonist 0.8% and Menin MLL FP FL -0.6.
COc1ccc(NC(=O)CN(C)C(=O)c2ccc(S(=O)(=O)Nc3ccccc3F)cc2)cc1 was read as gsp ag -5.6%, TRPV1 potentiator 10.0, ClpP mod -0.5%, D2 PAM -9.3 and gsp antagonist -12.4%.
For Cn1cnc(S(=O)(=O)Nc2ccc(C(F)(F)F)cc2)c1 the results were gsp ag -6.1%, TRPV1 potentiator 7.3, ClpP mod -1.0%, D2 PAM -29.6, Sfp PPTase inh 8.3%, gsp antagonist 6.3% and Menin MLL FP FL 1.4.
CC(C)(C)c1ccc(Oc2ccc(NC(=O)c3ccccc3C(=O)O)cn2)cc1 was read as gsp ag -11.7%, TRPV1 potentiator -11.0, ClpP mod -22.7%, D2 PAM 6.3, Sfp PPTase inh 11.0%, gsp antagonist -9.3% and Menin MLL FP FL 0.6.
For CC(C)NC(=O)Nc1ccc(Br)cc1Cl the results were gsp ag -0.5%[15.4 µM], TRPV1 potentiator -15.6, D2 PAM -13.1, Sfp PPTase inh 19.2%, gsp antagonist 14.0% and Menin MLL FP FL 0.8.
For C=CCN1C(=O)C(CC(=O)NCC)SC1=Nc1ccc(S(N)(=O)=O)cc1 (stereo not given) the results were gsp ag -29.3%, TRPV1 potentiator 3.5, ClpP mod -1.7%, D2 PAM -2.1, Sfp PPTase inh 18.5%, gsp antagonist 6.5% and Menin MLL FP FL 1.7.
Screening CCNc1nc(Oc2ccccc2)nc(OC(C)C(=O)OCC)n1 (stereo not given) returned gsp ag -19.0%, TRPV1 potentiator -3.6, ClpP mod -7.0%, D2 PAM -13.3, Sfp PPTase inh 9.2%, gsp antagonist 2.5% and Menin MLL FP FL -3.8.

From PubChem

Hits appear at their usual frequency; about 5.1% have a hit in one of these screens.
